# High-throughput results deposited in PubChem by several laboratories.
# eIF4H inh: human eIF4H binding inhibitors, primary screen, translation initiation inhibitor project, biochemical, uHTS, fluorescence polarization. eIF4H fluorescence polarization binding assay. inhibition, % at 35 µM. 290,000 tested, 0.94% active. AID 2012, 2009;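 active means 50% or more with normal probe brightness, or confirmed in later tests; inconclusive means above 50% with abnormal brightness, or retests that disagree; inactive means below 50% or failed in later tests; about a fifth of its hits are not listed in these tables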;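 further: calls also rest on retests at 20 µM and on dose response follow-up; 0% = protein and probe with vehicle and 100% = probe without protein; strong numbers were not always called active; many hits fall short of the cut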
# Env fusion inh: inhibitors of HIV-1 Env-driven cell-cell fusion, primary screen, HeLa-JRFL effector, CEM21 target cells, luciferase; inhibition, % at 12.3 µM; 360,000 tested, 1.1% active;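 active means mean replicate inhibition score of at least 50 and every replicate individually at or above 50; inconclusive means only one of the two criteria met; inactive means mean below 50 and not all replicates reaching 50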;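 further: 0% = plate neutral controls and 100% = maraviroc near 300 nM; one replicate is shown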
# UUG fidelity: modulators of yeast start codon fidelity, primary screen, whole organism, S. cerevisiae, single point, plate reader | S. cerevisiae UUG-firefly luciferase reporter, luminescence/redox ratio | activity score, % at 18.7 µM | 350,000 tested, 0.13% active | AID 602363, 2012;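 active means replicate mean at a twofold rise or more, about +100% in these data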;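 further: firefly luciferase made from a UUG start codon reports start codon fidelity; reporter light over untreated wells divided by growth signal over untreated wells; some hits fall short of that in this replicate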
# Rce1 inhib: yeast Rce1p protease inhibitors, primary screen, biochemical, fluorescence, cell-free homogeneous. calls only. 290,000 tested, 0.27% active. yeast membranes, quenched prenylated peptide cleavage fluorescence;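 active means fall in fluorescence gain of 50% or more versus controls, with final raw signal at or below 3038400; inconclusive means same 50% fall but final raw signal above 3038400; inactive means fall in fluorescence gain under 50%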;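 further: plate controls were neutral control wells for no effect and wells lacking membranes for full effect; tested at 10 µM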
# Target sequence (Q03530 whole entry, looked up): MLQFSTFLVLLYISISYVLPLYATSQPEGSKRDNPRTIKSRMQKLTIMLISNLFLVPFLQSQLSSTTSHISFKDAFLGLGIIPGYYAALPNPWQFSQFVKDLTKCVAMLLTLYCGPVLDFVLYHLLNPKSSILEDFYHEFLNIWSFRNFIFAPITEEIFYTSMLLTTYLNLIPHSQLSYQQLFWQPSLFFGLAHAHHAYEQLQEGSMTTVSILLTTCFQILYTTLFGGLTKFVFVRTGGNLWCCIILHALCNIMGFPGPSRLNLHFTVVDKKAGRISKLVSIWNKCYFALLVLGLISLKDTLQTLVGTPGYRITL
# PABP polyA inh: PABP poly(A) RNA binding inhibitors, primary screen, biochemical, fluorescence polarization, uHTS; Polyadenylate-binding protein 1 (Homo sapiens), P11940; inhibition, % at 35 µM; 290,000 tested, 1% active; AID 2014, 2009;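 active means 50% or more with normal probe brightness, or confirmed in later tests; inconclusive means above 50% with abnormal brightness, or retests that disagree; inactive means below 50% or failed in later tests; about a fifth of its hits are not listed in these tables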;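 further: calls also rest on retests at 20 µM and on dose response follow-up; controls were probe without protein and protein plus probe with vehicle; some compounds called inactive have numbers as strong as hits; many hits fall short of the cut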
# Target sequence (P11940 whole entry, looked up): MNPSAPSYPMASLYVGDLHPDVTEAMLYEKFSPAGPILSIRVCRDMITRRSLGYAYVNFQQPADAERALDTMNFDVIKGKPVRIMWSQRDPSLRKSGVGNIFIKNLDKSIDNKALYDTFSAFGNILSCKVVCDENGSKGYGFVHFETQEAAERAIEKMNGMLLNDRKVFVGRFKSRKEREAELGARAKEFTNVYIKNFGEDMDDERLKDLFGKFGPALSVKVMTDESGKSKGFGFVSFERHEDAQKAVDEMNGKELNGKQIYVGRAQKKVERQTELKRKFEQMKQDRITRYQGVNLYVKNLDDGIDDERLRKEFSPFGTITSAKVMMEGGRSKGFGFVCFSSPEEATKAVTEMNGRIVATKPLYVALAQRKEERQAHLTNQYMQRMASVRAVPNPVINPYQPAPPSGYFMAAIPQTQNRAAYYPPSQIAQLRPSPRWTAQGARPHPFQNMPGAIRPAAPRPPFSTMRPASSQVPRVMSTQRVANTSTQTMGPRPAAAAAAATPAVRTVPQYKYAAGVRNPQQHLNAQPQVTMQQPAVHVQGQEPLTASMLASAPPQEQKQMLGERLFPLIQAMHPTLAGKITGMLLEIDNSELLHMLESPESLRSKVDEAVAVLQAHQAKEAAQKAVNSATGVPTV
# CSC inhib: cancer stem cell viability inhibitors, primary screen, luminescence; cancer stem cell-like cells viability; inhibition, % at 7.5 µM; 300,000 tested, 1.1% active; AID 2717, 2010;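 active means mean at 75% or more and at least half the replicates too; inconclusive means mean and replicates disagree; tested in HMLE shEcad cells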;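 further: 0% = median of negative and 100% = median of positive control wells; the first replicate is given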
# MT1-MMP act inh: blockers of MT1-MMP proenzyme processing, primary screen, HT1080 RFP-PRO-GFP cells, GFP/RFP fluorescence. GFP/RFP ratio change, % at 20 µM. 360,000 tested, 0.061% active. AID 651647, 2012. GFP/RFP ratio fluorescence, overnight; percent of plate control window, DMSO zero;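 active means GFP/RFP ratio change of at least 30% with cell ATP level not reduced by more than half and red fluorescence within 50% of control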; further: strong numbers were not always called active
#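 system = RFP-PRO-GFP reporter HT1080 cells | dosing = 20 µM single dose, 1% DMSO | timing = overnight cell settling, then overnight compound exposure, 37 °C, 5% CO2 | read-out basis = GFP/RFP fluorescence ratio | controls = DMSO and RFP-L50D-GFP cell wells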
# eIF4H inh retest: also measured in eIF4H inh; calls as there; inhibition, %; compound at 20 µM; confirmation average;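 mean of two retest wells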
# PABP polyA inh retest: second read-out of PABP polyA inh, no call of its own (marks repeat the call); inhibition, %; compound at 20 µM; confirmation repeats;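 mean of two retest wells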
# MT1-MMP act inh RFP: second read-out of MT1-MMP act inh, no call of its own (marks repeat the call); RFP signal change, %; measured here: RFP expression control read;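 0 = vehicle wells; hits needed this value within 50% of zero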
# Starred values were filed as active, the others as inactive; i = inactive; ? = inconclusive; · = not tested or not shown; + = active, no number; & = joins results of further samples.
SMILES,eIF4H inh,Env fusion inh,UUG fidelity,Rce1 inhib,PABP polyA inh,CSC inhib,MT1-MMP act inh,MT1-MMP act inh RFP,others
CCN(CC)CCN1C(=O)C2C(C(=O)Nc3ccc(C(C)C)cc3)C3C=CC2(O3)C1C(=O)NC1CCCCC1 (stereo not given),-1,11,-10,i,-4,-48,-1,-6,
C=CCOC(=O)c1sc(NC(=O)c2ccco2)nc1C,-2,-51,-10,i,12,71,0,0,
Cc1ccc(COn2c(-c3ccc(Cl)cc3Cl)nc3ncccc32)cc1,6,·,-9,i,-4,-14,-7,-10,
CCc1ccc(N2C(=O)C3ON(c4ccccc4)C(c4ccco4)C3C2=O)cc1 (stereo not given),0,·,-13,i,4,-12,7,2,
OC(c1ccc2c(c1)OCO2)c1nccc2ccccc12 (stereo not given),-3,·,-11,i,4,12,2,4,
O=C(/C=C\c1ccccc1)NCC(=O)N/N=C/c1ccc(O)cc1O,·,·,-12,i,·,104*,8,3,
Cc1nnc(N/N=C/c2ccc([N+](=O)[O-])cc2)n1N,-2,-8,-29,i,-12,·,3,4,
COc1cc(OC)cc(C(=O)Nc2ccn(C)n2)c1,·,2,-6,·,·,-15,0,2,
Cc1nc2c(C(=O)N3CCN(C)CC3)cnn2c(C)c1Cc1ccc(Cl)cc1,-6,5,-22,+,-10,-8,4,6,
Cc1cccc(OCCCC(=O)Nc2ccc(Cl)c(S(=O)(=O)N3CCOCC3)c2)c1,·,62*,-1,·,·,·,2,-29,
CCSc1nc(-c2ccccc2)nc(C(Cl)Cl)n1,-4,81*,-13,i,-3,100*,-28,-22,
COc1ccccc1N(CC(=O)NCCC1=CCCCC1)S(=O)(=O)c1ccccc1,-11,39,·,i,1,-2,2,-3,
Cc1ccc(C)c(NC(=O)c2cc[n+](C)cc2)c1,11,-53,-16,i,40,-1,-7,-2,
Cc1cc(Cl)n2nc(C)c(-c3ccc(Cl)cc3)c2n1,-7,-8,-6,i,7,18,5,-3,
O=C(Nc1ccc(S(=O)(=O)Nc2nccs2)cc1)c1nn(-c2ccc(F)cc2)ccc1=O,80*,0,·,i,48*,-19,-2,2,eIF4H inh retest=76*;PABP polyA inh retest=58*
O=C(CCC1COc2ccccc2O1)N1CCCC1 (stereo not given),-8,·,4,i,-5,-6,2,2,
O=C(CSc1ccc(F)cc1)Nc1nnc(-c2ccco2)o1,·,-8,-18,i,·,·,4,5,
COc1cc(/C=N/NC(=O)C(=O)NCc2ccco2)cc(Cl)c1O,?,-6,-18,i,3.8*,-3,6,1,PABP polyA inh retest=97*
O=C(N/N=C/C=C/c1ccco1)c1cccc([N+](=O)[O-])c1,92,-2,-24,i,7,0,-3,1,eIF4H inh retest=3;PABP polyA inh retest=5
O=c1[nH]c2cccc(Cl)c2n(CCNc2ncc(C(F)(F)F)cc2Cl)c1=O,4,·,-4,i,10,-15,2,-18,
N#Cc1ncn(-c2ccc(Oc3ccccc3)cc2)c1N,2,-4,·,i,-19,-6,5,4,
CCOc1ccccc1NC(=O)c1ccc2nccnc2c1,-7,·,0,i,61,·,-4,4,eIF4H inh retest=-4;PABP polyA inh retest=15
CS(=O)(=O)c1cc(N2CCOCC2)ccc1CNC[C@H]1O[C@@H](n2cnc3c(=O)[nH]c(N)nc32)[C@H](O)[C@@H]1O,·,8,-13,·,·,·,1,4,
Cc1ccc(N2CC(C(=O)NCc3ccccn3)CC2=O)cc1 (stereo not given),-4,·,-4,i,4,·,2,2,
COC(=O)Cn1cnc2ccccc2c1=O,4,·,-8,i,-3,1,1,5,
Cc1cc(CNC[C@H]2O[C@@H](n3cnc4c(N)ncnc43)[C@H](O)[C@@H]2O)no1,·,8,-2,·,·,·,2,4,
O=C(CCN1C(=O)c2ccc([N+](=O)[O-])cc2C1=O)Nc1cccc(O)c1,-4,·,-12,i,15,-3,-6,-2,
Cc1cccc(N2CCN(C(=S)Nc3ccc4nc(N5CCN(C)CC5)cc(C)c4c3)CC2C)c1 (stereo not given),1,2,·,i,12,?,4,1,
COc1ccc(NC2CS(=O)(=O)CC2NCc2ccco2)cc1 (stereo not given),20,-52,-18,i,7,-7,1,2,
Cc1nc2ccccc2n1CCOc1ccc([N+](=O)[O-])cc1,-2,13,·,i,4,6,4,-1,
COc1ccc(N(CC(=O)Nc2cccc(N(C)S(C)(=O)=O)c2)S(=O)(=O)c2ccccc2)cc1Cl,8,-20,·,i,7,2,-3,-5,
Cc1ccc2c(c1)N(CCC(=O)NC(C)C)C(=O)CO2,3,-7,1,i,3,-5,-3,0,
COc1ccc(-c2nc(C(N)=O)c3[nH]c(=O)n(-c4ccccc4OC)c3n2)c(OC)c1,0,-10,-5,i,2,14,-5,-1,
CN(C)S(=O)(=O)c1ccccc1N=C=S,-12,-10,-6,·,-4,·,1,3,
CCOC(=O)CNC(=O)c1cn(CC)c(=O)c2cc(OC)c(OC)cc12,13,-40,-8,i,1,-3,1,0,
O=C(NCCc1cccc(Cl)c1)c1cc2ccccc2oc1=O,2,·,-14,i,2,-19,0,1,
CC(=O)N1CCN(S(=O)(=O)c2c(F)cc(F)c(Cl)c2F)CC1,-1,12,-20,i,5,-9,2,1,
COc1ccc(OCC(=O)NNC(=O)C(=O)N2CCCC2)cc1,2,-2,·,i,6,-9,5,7,
Cc1cc(C)n2nc(SC(C)C(=O)Nc3ccccc3F)nc2n1 (stereo not given),·,-32,-9,·,·,0,2,-2,
Cc1ccc2c(c1)CC1(CN2C)C(=O)OC(C)(C)OC1=O,7,-1,8,i,7,·,1,1,
O=C(COc1nc2ccccc2nc1N1CCOCC1)N1CCc2ccccc21,22,·,-7,i,43,·,-4,1,
Cc1ccc(S/C=C\C(=O)c2ccccc2)cc1,0,·,·,i,-6,·,-38,-19,
COc1cc(OC)c(C(=O)OCC(=O)c2ccc3c(c2)NC(=O)CO3)cc1OC,·,0,-8,·,·,-6,3,-1,
O=C(COC(=O)c1ccccc1F)NNC(=O)c1ccccc1,·,0,-14,i,·,-5,-3,2,
NC(=O)c1ccc(C(F)(F)F)n(Cc2ccc(Cl)cc2)c1=O,2,44,-8,i,5,9,-1,-6,
CN(C)c1ccc(/C=C(/C#N)C(=O)NCc2ccccc2)o1,?,-11,·,·,-13,-8,-98,9,
COc1ccc(S(=O)(=O)N2CCCC(C(=O)N3CCCC3)C2)cc1OC (stereo not given),·,-26,4,i,·,-18,3,0,
COCCn1c(SCC(=O)Nc2cc(C)on2)nnc1-c1ccco1,-7,·,-17,i,-3,-7,-3,2,
Cc1cccc2cc(CN(Cc3ccco3)C(=O)c3cccs3)c(=O)[nH]c12,-6,·,-1,i,1,2,6,-4,
c1csc(C2Nc3ccccc3-c3nc4ccccc4n32)c1 (stereo not given),-13,-23,·,?,-13,35,-4,-9,
CC(C)C1OC2c3cccc4cccc(c34)C2N1c1ccccc1 (stereo not given),105,-67,-19,i,-5,8,-13,5,eIF4H inh retest=44;PABP polyA inh retest=29
COc1cccc(-c2nc(-c3ccccc3)c(-c3ccccc3)[nH]2)c1OCC(=O)O,-4,-6,1,i,5,1,-1,-3,
C[C@]12C[C@H](O)[C@@H]3c4ccc(O)cc4CCC3[C@@H]1CCC2=O (stereo not given in full),6,5,-23,i,-7,-5,0,4,
CCOC(=O)C1CCCN(S(=O)(=O)c2ccccc2)C1 (stereo not given),6,-27,-17,i,2,4,-2,6,
Cc1cccc(-c2nc(CSCC(=O)N3CCN(Cc4ccc5c(c4)OCO5)CC3)c(C)o2)c1,-4,·,-10,i,0,29,-6,-17,
COc1cc(NC(=O)C2CCN(S(=O)(=O)c3ccc4[nH]c(=O)oc4c3)CC2)cc(OC)c1,-3,4,-2,i,-10,2,5,2,
CCOC(=O)c1c(C)[nH]c(C=Nc2ccc(OC)cc2)c1O,89,·,-15,i,5,7,-1,6,eIF4H inh retest=-6;PABP polyA inh retest=0
COc1ccc(NS(=O)(=O)c2ccc(C(=O)N3CCN(c4ccc(F)cc4)CC3)cc2)cc1,·,·,-8,·,·,-17,4,-19,
O=C(C1COc2ccccc2O1)N1CCN(c2nc3c(F)cc(F)cc3s2)CC1 (stereo not given),·,-23,-7,i,·,-5,2,3,
CCOC(=O)C1CCCN(C(=O)c2ccc(-c3ccc([N+](=O)[O-])cc3)o2)C1 (stereo not given),·,-17,·,i,·,19,-2,0,

# Next part
SMILES,eIF4H inh,Env fusion inh,UUG fidelity,Rce1 inhib,PABP polyA inh,CSC inhib,MT1-MMP act inh,MT1-MMP act inh RFP,others
Cc1cc(=O)[nH]c(N/N=C/C=C/c2ccccc2)n1,-5,3,·,i,9,-8,-2,-2,
Cc1cccc(N(CC(=O)NCc2ccco2)C(=O)CCC(=O)Nc2nccs2)c1,-4,29,·,i,6,-6,-3,0,
O=C(OC[C@@H]1CCCN2CCCC[C@H]12)c1cc2ccccc2oc1=O,-3,·,-3,+,5,6,2,5,
COCCSc1nnc(NS(=O)(=O)Cc2ccccc2)s1,-1,·,-21,i,20,·,2,5,
COC(=O)Nc1ccc(S(=O)(=O)NNC(=O)c2c(O)c3ccccc3[nH]c2=O)cc1,-1,-16,-11,i,5,·,-8,-10,
CN(C)CCN(Cc1ccccc1)c1ccccn1,-10&3,13,-6,i,-11&-3,-3,0,3,
CC(C)CC1NC(=O)N(CC(=O)Nc2ccc(OCc3ccccc3)cc2)C1=O (stereo not given),·,-2,-11,·,·,·,0,3,
CN(CC(=O)NCc1cccc(F)c1)C(=O)c1ccco1,0,-28,·,i,10,-17,6,-1,
CC[N+](C)(C)Cc1ccccc1Br,-3,-19,-7,i,-11,·,-3,2,
CN(Cc1ccco1)Cc1ccc(O)c2ncccc12,·,·,-5,·,·,-4,-1,1,
COc1cc(-c2cc(N3C(=O)Nc4ccccc4N3O)n[nH]2)cc(OC)c1OC,6,-45,-4,i,-7,11,8,4,
COc1ccc(S(=O)(=O)N2CCC(C(=O)NCCN3CCOCC3)CC2)cc1OC,4,5,-23,i,11,-7,4,4,
N#CCc1c(C#N)c(N)nc(N2CCCC(CO)C2)c1C#N (stereo not given),2,-11,·,i,4,·,2,7,
O=C(NCCc1ccco1)c1ccc(OCc2cn3ccccc3n2)cc1,·,-38,-8,·,·,-8,-2,-2,
Oc1c(Br)cc2oc3c(c2c1CNCc1ccccc1)CCCC3,26,13,-19,i,9,-1,-12,1,
O=C(Nc1ccccc1)C1CC(=O)N(c2ccc3c4c(cccc24)CC3)C1 (stereo not given),-1,·,-25,i,0,·,-4,-1,
COC(=O)CN(n1cnnc1)S(=O)(=O)c1ccccc1Cl,-12,-93,-7,·,-4,-10,1,9,
COc1ccc2[nH]c(C(=O)Nc3ccc4c(c3)OCO4)cc2c1,4,-22,16,i,-1,31,-3,-5,
Cc1ccc(-c2onc3ccc(C(=O)/C=C/N(C)C)cc23)cc1,8,12,-17,i,0,3,-11,-11,

# A portion from further up, as a working copy:
SMILES,eIF4H inh,Env fusion inh,UUG fidelity,Rce1 inhib,PABP polyA inh,CSC inhib,MT1-MMP act inh,MT1-MMP act inh RFP,others
N#CCc1c(C#N)c(N)nc(N2CCCC(CO)C2)c1C#N (stereo not given),2,-11,·,i,4,·,2,7,
O=C(NCCc1ccco1)c1ccc(OCc2cn3ccccc3n2)cc1,·,-38,-8,·,·,-8,-2,-2,
